Bioassay records deposited in PubChem by National Center for Advancing Translational Sciences (NCATS).
Rango release inh – inhibitors of RanGTP-induced Rango-importin beta complex dissociation | actives 0.071% (n = 340,000) | Biochemical FRET Rango-importin beta, RanGTP-induced dissociation | Potency, µM (doses to about 46.1 µM), for the others: at the highest dose activity change, negative = inhibition; active means falling FRET ratio curve, often poorly fitted, with flat reads before Ran was added; inconclusive means other falling curves, or compound fluorescence or quenching; inactive means flat or rising ratio curve;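 further: potency means the concentration at half of the fitted maximal effect; % of control where 0% means no effect; nearly all actives have a fitted effect of over 45% in size; -100% = wells without RanGTP and RCC1; the record marks most hits as doubtful in a second field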
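Compounds sat 5 min at room temperature with 0.1 uM Rango biosensor plus 0.25 uM importin beta, then FRET pre-read. RanGTP-RCC1 (0.6 uM Ran, 2mM GTP, 0.2 uM RCC1) added for 45 min, and the CFP/YFP post-read measured blocked complex dissociation.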
GLA inh pH 4.5 – inhibitors of human alpha-galactosidase A at pH 4.5; activity change, negative = inhibition, % at 105 µM; purified enzyme, 4-MU-alpha-Gal fluorescence, pH 4.5; 230,000 tested, under 10 active; P06280; inconclusive = small, poorly fitted or top-dose-only inhibition, or a rising curve; inactive = flat fitted curve, though single readings scatter; no compound was filed as active;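 further: 0% = full activity with enzyme and -100% = basal without enzyme; dose as in the result columns while the protocol names 77 µM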
Target sequence (P06280 whole entry, looked up): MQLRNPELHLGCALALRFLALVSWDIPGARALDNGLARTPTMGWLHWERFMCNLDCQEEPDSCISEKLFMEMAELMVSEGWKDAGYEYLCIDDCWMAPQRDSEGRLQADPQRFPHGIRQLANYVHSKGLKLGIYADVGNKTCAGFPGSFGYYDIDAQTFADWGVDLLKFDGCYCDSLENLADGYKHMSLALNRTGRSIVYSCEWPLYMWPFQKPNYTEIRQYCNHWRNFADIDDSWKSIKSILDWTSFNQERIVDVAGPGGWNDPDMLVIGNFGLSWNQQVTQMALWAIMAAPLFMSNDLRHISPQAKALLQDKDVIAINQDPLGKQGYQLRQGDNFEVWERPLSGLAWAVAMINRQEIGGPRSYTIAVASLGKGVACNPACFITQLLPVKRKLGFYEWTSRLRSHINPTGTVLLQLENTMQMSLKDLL
Rango-impB inh – prevents formation of the Rango-importin beta complex. Q14974. Rango CFP/YFP FRET sensor + importin beta, 45 min. Potency, µM (series often up to 92.2 µM), for the others: top-dose inhibition of complex formation. actives 0.031% (n = 340,000). AID 540263; active = rising FRET ratio curve, often small or poorly fitted; inconclusive = mostly compound fluorescence or quenching in the first reads; inactive = flat curves in all reads;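 further: potency means the concentration at half of the fitted maximal effect; 0% = DMSO wells and 100% = buffer wells lacking importin beta; nearly all actives have a fitted effect of over 15% in size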
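FRET biosensor Rango (snurportin 1 IBB between N-terminal EYFP and C-terminal Cerulean), 50 nM in PBS/1 mM DTT/0.02% Tween-20/0.1% BSA, preincubated 5 min RT with compound; 0.125 microM importin beta added, 45 min RT, CFP/YFP FRET ratio read.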
miR-21 reporter – miR-21 reporter, rising signal | HeLa miR-21 FLuc reporter, luciferase, 48 h | Potency, µM (titrated, usually from 38.3 µM), inactives show top-dose reporter change, positive = more light | 340,000 tested, under 10 active | AID 2288; active = well fitted rising curve with a large enough effect; inconclusive = small, poorly fitted or top-dose-only effect; inactive = no such curve, though single readings can be large or run the other way;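 further: % of control where 0% means no effect; miR-21 action dims this reporter so a rising signal means less miR-21 action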
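Compounds were titrated across several concentrations (up to approximately 40 uM) and incubated 48 hours with HeLa miR-21-FLuc reporter cells (miR-21 target sequence downstream of FLuc, endogenous miR-21). Readout was firefly luciferase luminescence after lytic detection reagent.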
* marks the source's active call; other numbers are inactive results; ? = inconclusive; . = no result given; & = joins results of further samples; [ ] = dose if it differs, or a comment.

SMILES	Rango release inh	GLA inh pH 4.5	Rango-impB inh	miR-21 reporter
c1ccc(COc2ccc(CNn3cnnc3)cc2)cc1	8%	-2	-0.6%	-37%
O=C(CSc1ccc2c(c1)OCCO2)NCc1ccccc1	9%	3	0.6%	-19%
Cc1cccc(N(C)Cc2nnc(-c3cccc(Br)c3)o2)c1	-8%	.	2.4%	-5%
C#CCNC(=O)C1=C[C@H](C)C[C@H](OCc2ccc(CO)cc2)O1	-8%	.	-0.3%	.
CCN(CC)CCNc1cc(C)c(C#N)c2nc3ccccc3n12	?	.	?	-4%
O=C(c1cnccn1)N1CCN(S(=O)(=O)c2ccc3ccccc3c2)CC1	9%	9	-1.6%	-2%
CCCCN1CC(=O)N2[C@@H]3c4cc(OC)ccc4OC[C@@H]3[C@H](C(=O)OCC)[C@]2(C)C1=O	10%	.	-1.3%	.
CC(C)C[C@H](NC(=O)N1CCn2c1nc1ccccc12)C(=O)N[C@@H](Cc1ccccc1)C(=O)O	-16%	.	4.6%	-3%
COc1cccc(NCc2nnc(SCC(=O)N(C)C3CCS(=O)(=O)C3)n2C2CCCCC2)c1 (configuration not stated)	7%	.	1.5%	0%
CC(=O)c1c(C)[nH]c(C(=O)NCCc2cccc(C)c2)c1C	1%	16	-4.6%	-19%
COc1ccccc1CNC(=O)CN1C(=O)N(C)C2(CCCCC2)C1=O	13%	.	-1.1%	.
COc1ccc(C2C3=C(CCCC3=O)N(CC(=O)O)C3=C2C(=O)CCC3)cc1Cl	?	.	?	-4%
Cn1nc(C(=O)NCc2ccccc2Cl)c2c1-c1ccccc1S(=O)(=O)C2	5%	.	0.2%	-2%&-15%
Cc1nc2c(ncn2-c2ccccc2)c(=O)n1NC(=O)CN1CCN(C)CC1	7%	6	-2.4%	-9%
O=C(O)CCCCCN1C(=O)/C(=C/c2cn(-c3ccccc3)nc2-c2cccs2)SC1=S	-1%	.	?	.
COc1ccc(C(=O)Nc2ccc(C3CC3(Cl)Cl)cc2)cc1 (configuration not stated)	8%	3	3.1%	-38%
CCOC(=O)/C(C#N)=C/c1c(N2CCN(CC)CC2)nc2c(C)cccn2c1=O	?	.	?	-2%
COc1cccc2c(=O)cc(C)n(CC(=O)Nc3ccc(Br)cc3)c12	-7%	-4	0.0%	3%
O=C1c2ccccc2CCc2ccc(Br)cc21	7%	.	0.1%	.
O=C(CC(Sc1ccccc1)c1cccs1)c1ccco1 (configuration not stated)	-6%	6	?	-2%
CCc1cc2c(=O)c(-c3cnn(-c4ccccc4)c3)c(C)oc2cc1OCC(=O)Nc1cccc(C)c1	0%	-2	-0.4%	-11%
O=S1(=O)N[C@@H](Cc2ccccc2)COc2cc(Br)ccc21	8%	.	7.2%	.
O=C(c1ccco1)N1CCN(C(=O)c2cc(-c3ccncc3)nc3ccc(Br)cc23)CC1	-8%	.	-3.3%	.
CCN1CCN(c2ccc(NC(=O)c3ccc([N+](=O)[O-])o3)cc2Cl)CC1	6%	8	-4.2%	-19%
COc1ccc(N/C(N)=N/c2nc(CSc3ccc(Cl)cc3)cc(=O)[nH]2)cc1	2%	3	0.0%	-6%
CCOC(=O)Cn1nc(-c2ccccc2)c2cnc3ccc(C)cc3c21	0%	1	-1.9%	-1%
NC(=O)CC(NC(=O)c1ccc(Br)cc1)c1ccc(N2CCN(c3ccccc3)CC2)c([N+](=O)[O-])c1 (configuration not stated)	-17%	.	0.1%	12%
Cc1ccccc1C(OCC(O)CN1CCN(CCO)CC1)c1ccccc1 (configuration not stated)	-13%	.	0.9%	0%
COCCN(C(=O)CSc1nc2ccccc2c(=O)n1C(C)COC)c1c(N)n(Cc2ccccc2)c(=O)[nH]c1=O (configuration not stated)	-1%	-1[21.1 µM]	-2.5%	-7%
Cc1cc(C)n(CC(=O)NNC(=O)c2cncc(Br)c2)n1	-13%	.	-3.9%	.
CCCn1c(=O)c(C(=O)Nc2ncccc2C)c(O)c2ccccc21	0%	6	2.9%	-4%
O=C(Nc1ccc(Nc2ccccc2)cc1)c1ccc(Cl)c([N+](=O)[O-])c1	-15%	.	0.4%	20%
COc1ccc(C2C=C(c3ccc(Br)cc3)Nc3nc(NS(C)(=O)=O)nn32)cc1 (configuration not stated)	.	17	.	-8%
O=C(NC12CC3CC(CC(C3)C1)C2)N1CCCC(CO)C1 (configuration not stated)	0%	-1	-0.5%	-14%
CN(C(=O)c1cccc(NC(=O)Cc2ccc(NC(=O)C3CCN(C(=O)CCc4ccccc4)CC3)cc2)c1)C1CC1	-10%	.	-2.4%	.
CCN(CC(=O)Nc1ccc(NC(C)=O)cc1)C(=O)CCCOc1cccc(C)c1	16%	.	-2.4%	.
O=C(O)c1cccc(N/N=C/c2cc(Br)cc(Br)c2O)c1	?	-9	?	-65%
CCCCNc1c([N+](=O)[O-])ncn1C	0%	-5	0.8%	0%
COc1ccc(Br)cc1CSC(=N)N	-5%	1	1.2%	8%
COc1ccc(N(CC(=O)NCCSCc2ccc(C)cc2)S(=O)(=O)c2ccccc2)cc1	2%	.	0.1%	11%
CS(=O)(=O)N1CCN(C(=O)c2ccc(F)cc2)CC1	-11%	2	0.2%	-2%
CC(C)CCC(C(=O)NC(C)c1ccccc1)C(=O)NC(C)c1ccccc1 (configuration not stated)	25%	.	-0.3%	0%
N#Cc1c(-c2ccco2)cc(-c2cccnc2)nc1N	?	30	?	-14%
O=[N+]([O-])c1ccc(Cl)c(S(=O)(=O)Nc2ccc(S(=O)(=O)N3CCOCC3)cc2)c1	8%	.	-0.3%	-1%
CCCCc1cc(=O)oc2cc(C)cc(OC(C)C(=O)NCc3cccnc3)c12 (configuration not stated)	-4%	.	-0.8%	-22%
CSc1nc2sc3c(c2c(=O)[nH]1)CCC3	21%	-3	0.6%	-15%
COc1ccc(OCC(O)CNC(=O)c2sccc2Cl)cc1 (configuration not stated)	2%	-3	-1.6%	-23%
C=CCCC(=O)N1CCCC(Cc2cccc(Cl)c2)(C(=O)OCC)C1 (configuration not stated)	9%	.	0.0%	5%
COc1ccc(CC(=O)NCc2ccc(F)cc2)cc1S(=O)(=O)N1CCOCC1	-11%	.	-4.2%	.
Cc1nc(N)sc1N=Nc1ccc(F)cc1	-16%	1	-3.2%	-72%
CSc1ccc(S(=O)(=O)Nc2ccc(F)cc2)cc1	-13%	-4	0.2%	0%
COc1ccc(/C=C/C(=O)OC2CCCCC2CN(C)C)cc1 (configuration not stated)	-3%	-3	-3.8%	1%
CCOC(=O)C1CCCN(C(=O)CSc2nc(C)cc(C)n2)C1 (configuration not stated)	18%	.	-0.7%	2%
Cc1cccc(OCCNC(=O)c2cc(-n3cnnc3)ccc2Cl)c1	-20%	6	-2.7%	-6%
Cc1ccccc1-n1c(SC(C)C(N)=O)nnc1-c1cccnc1 (configuration not stated)	27%	8	4.4%	2%
Oc1ccc(Cl)cc1N=Nc1ccccc1	-12%	.	3.1%	-11%
COc1cc(C2C(C(=O)c3cccs3)=C(O)C(=O)N2c2cc(C)on2)ccc1O (configuration not stated)	-12%	3	0.0%	-3%
CCOC(=O)/C(N=Nc1ccc2c(c1)OCO2)=C(\C)O	10%	-4	4.8%	-70%
Cc1cc(C(=O)NNc2c(Cl)cccc2Cl)no1	-11%	-1	-0.1%	-6%
COc1ccc(-c2ccc(C)cc2)cc1[C@H]1[C@H]2C=CC[C@@H](C)[C@@H]2C(=O)N1Cc1ccccc1	19%	-4	?	-7%

Reprinted at random: 3 records from the list.
SMILES	Rango release inh	GLA inh pH 4.5	Rango-impB inh	miR-21 reporter
Cc1ccccc1C(OCC(O)CN1CCN(CCO)CC1)c1ccccc1 (configuration not stated)	-13%	.	0.9%	0%
COc1ccc(C2C3=C(CCCC3=O)N(CC(=O)O)C3=C2C(=O)CCC3)cc1Cl	?	.	?	-4%
N#Cc1c(-c2ccco2)cc(-c2cccnc2)nc1N	?	30	?	-14%

(listing goes on)
SMILES	Rango release inh	GLA inh pH 4.5	Rango-impB inh	miR-21 reporter
O=C1CCC(C(=O)Nc2ccccc2N2CCOCC2)=NN1	19%	0	1.7%	-2%
Cc1cccc(OCc2nnc(SCC(=O)Nc3ccc(C)c(Cl)c3)o2)c1	-5%	8	-2.2%	-6%
O=C1Nc2c(ccc(Cl)c2Cl)C(=O)C1(F)c1ccccc1 (configuration not stated)	-4%	4	?	-13%
Cc1ccc(NC(=O)CC(=O)Nc2ccc(C)cc2)cc1	0%	-7	-1.4%	-3%
O=[N+]([O-])c1ccc(CSc2ccc(S(=O)(=O)N3CCCCCC3)cn2)cc1	3%	.	-2.6%	.
COC(=O)COc1ccc(NC(=O)C(c2ccccc2)c2ccccc2)cc1	0%	.	0.5%	3%
Clc1cccc(-c2ccc(CNCCCN3CCOCC3)o2)c1	?	-22	?	-8%
N#CC1=C(N)Oc2[nH]c(=S)[nH]c(=O)c2C12C(=O)Nc1ccccc12 (configuration not stated)	-12%	2	?	-4%
Cc1cc(C)c(S(=O)(=O)N2CCN(C(=O)N3CCOCC3)CC2)c(C)c1	-13%	.	-2.7%	0%
COc1cc(/C=N/NC(=S)NCCN2CCOCC2)cc(OC)c1OC	17%	5	-3.2%	-6%
O=C(CN1C(=O)/C(=C2\SC(=S)N(C3CCS(=O)(=O)C3)C2=O)c2ccccc21)Nc1ccccc1 (configuration not stated)	0%	5	1.1%	-7%
CC(=O)NNC(=O)c1[nH]c2ccc(Cl)cc2c1-c1ccccc1	15%	-29	4.6%	14%
O=C(NCCc1ccccc1)c1oc2ccccc2c1COc1ccccc1	1%	-13	?	-13%
Cc1ccc(NC(=O)c2cc(NC(=O)c3ccco3)ccc2N2CCOCC2)cc1	7%	-1	0.1%	13%
CC(=O)c1ccc(-n2nnnc2SCC(=O)Nc2cccc(NC(=O)c3ccco3)c2)cc1	22%	-16	0.5%	-1%
Cc1oc2cc3oc(=O)ccc3cc2c1C	-19%	.	-0.8%	-27%
CCN(CC(=O)Nc1c(F)cccc1F)C(=O)c1ccc(-n2cncn2)c([N+](=O)[O-])c1	-6%	.	1.4%	.
c1ccc(CNc2ccccn2)cc1	-14%	.	5.5%	10%
O=S(=O)(NCCOc1ccccc1)c1ccc2ccccc2c1	0%	1	4.1%	3%
CC(C)(C)NC(=O)N1CCN(c2ncccc2C(F)(F)F)CC1	31%	-1	-1.6%	-3%

One compound at a time (already shown):
Shown for `Cc1cc(C)n(CC(=O)NNC(=O)c2cncc(Br)c2)n1` = Rango release inh: -13%; GLA inh pH 4.5: .; Rango-impB inh: -3.9%; miR-21 reporter: .
Shown for `c1ccc(CNc2ccccn2)cc1` = Rango release inh: -14%; GLA inh pH 4.5: .; Rango-impB inh: 5.5%; miR-21 reporter: 10%
Shown for `N#Cc1c(-c2ccco2)cc(-c2cccnc2)nc1N` = Rango release inh: ?; GLA inh pH 4.5: 30; Rango-impB inh: ?; miR-21 reporter: -14%

Later entries
SMILES	Rango release inh	GLA inh pH 4.5	Rango-impB inh	miR-21 reporter
C#CCN(C(=O)c1cc(COc2cccc(C(F)(F)F)c2)on1)C1CCCCC1	-10%	.	-2.1%	15%
CCOC(=O)N1CCN(C(=O)CSc2ncnc3ccccc23)CC1	7%	3	0.6%	-6%
Cc1ccc2oc(=O)c3cc(C(=O)Nc4cc(-c5cccc(F)c5)no4)sc3c2c1	.	7	.	-6%
CC(C)[C@H](NC(=O)CCCn1nnc2ccccc2c1=O)C(=O)O	-3%	1	-4.6%	0%
CC1=C(C#N)C(c2ccccc2O)C(C#N)=C(C)N1	-4%	-1	4.8%	9%

The list is partial. The share of hits here may be higher or lower than overall.
